Compound activity as filed in PubChem BioAssay.
HPGD block – inhibitors of human 15-hydroxyprostaglandin dehydrogenase (HPGD) | P15428 | purified HPGD, NADH fluorescence kinetic, PGE2 substrate | Potency, µM, without a hit: at the highest dose activity change, negative = inhibition, actives largely listed as inhibitors | hit rate 4.3% among 150,000; active = well fitted inhibition curve with a large enough effect (not every such curve was filed as active); inconclusive = small, poorly fitted or top-dose-only effect, or another doubt; inactive = no such curve, though single readings can be large or run the other way;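 note: top concentration of the series not given in the record; plate controls included wells without enzyme; inactives centre near -10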
Target sequence (P15428 whole entry, looked up): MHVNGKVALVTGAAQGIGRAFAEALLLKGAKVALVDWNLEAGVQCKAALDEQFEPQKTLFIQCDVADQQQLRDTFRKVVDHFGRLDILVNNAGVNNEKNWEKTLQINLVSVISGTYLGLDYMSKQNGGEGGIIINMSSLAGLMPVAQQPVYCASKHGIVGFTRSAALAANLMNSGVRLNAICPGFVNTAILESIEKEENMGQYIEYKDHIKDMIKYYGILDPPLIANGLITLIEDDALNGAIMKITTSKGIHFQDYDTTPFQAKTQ
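20 nM HPGD preincubated 15 min at room temperature with compound in 50 mM Tris-HCl pH 8, 0.01% Tween 20. Started with 1 mM NAD+ and 30 uM prostaglandin E2; NADH fluorescence (360/450 nm) read 5 times over 30-s intervals, last minus first.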
The depositor's hits bear a star; ? = inconclusive. % is set by controls: 0 for no effect and ±100 for the full control effect; potency is the fitted concentration of half-maximal effect.

SMILES	HPGD block
O=C(c1ccco1)N1CCN(C(c2cccs2)c2nnnn2C2CCCC2)CC1 (stereo not given)	1%
CCOC(=O)C1=C(C)NC(=O)NC1c1cc(Br)c(O)c(OC)c1 (stereo not given)	-6%
Cc1ccc(S(=O)(=O)c2nc(-c3ccccc3)oc2NCc2cccnc2)cc1	-19%
Cc1nc2c(-c3ccccc3)c(C)[nH]n2c(=O)c1Cl	-23%
O=C(c1ccc(O)cc1)c1ccc(Cl)cc1	-10%
O=C(Nc1cccc(-c2nc3ccccc3s2)c1)c1cccs1	?
CCOC(=O)c1csc(NC(=O)C2CCCCC2)n1	3%
O=C(c1nn2c(C(F)(F)F)cc(-c3ccc(F)cc3)nc2c1Cl)N1CCOCC1	-19%
O=C(O)CSCC(=O)Nc1cccc2ccccc12	-14%
O=C(CCCn1c(=O)[nH]c2cc(Cl)ccc2c1=O)NCCCN1CCCC1=O	-10%
Cc1cc(C(F)(F)F)c2c(N)c(C(=O)Nc3cc(C)on3)sc2n1	-13%
COc1ccccc1CNc1nc(SC)ncc1CO	-13%
O=S(=O)(c1ccccc1)N(C1=NCCS1)S(=O)(=O)c1ccccc1	-2%
CCOC(=O)c1nnn(CC(=O)N2N=C(c3cc(C)ccc3C)CC2c2ccc(OC)cc2)c1C(=O)OCC (stereo not given)	?
Cc1oc(C(=O)O)cc1COc1ccc2c(C)cc(=O)oc2c1	?
CC(C)Cc1nnc(NC(=O)CS(=O)(=O)Cc2ccccc2)s1	-28%
CC1(c2ccc3ccccc3c2)NC(=O)N(CC(=O)Nc2cccc(S(=O)(=O)N3CCOCC3)c2)C1=O (stereo not given)	-1%
CCN(CC)S(=O)(=O)c1cccc(-c2nnc(SCc3nnc(-c4cccs4)o3)n2N)c1	?
Cc1ccc(OCCC(=O)NCCc2ccc(S(N)(=O)=O)cc2)cc1	-6%
Fc1ccc(NC(=S)N/N=C/c2ccc(F)c(F)c2)c(F)c1	-1%
Cn1c(=S)[nH]c2ccccc21	-24%
C=CCn1c(O)c(N=NC(=O)OC(C)(C)C)c2ccccc21	?
COc1cc(C(O)CO)ccc1OS(=O)(=O)O (stereo not given)	-5%
Cc1cc(S(=O)(=O)N(Cc2ccccc2Cl)c2ccc3c(c2)CCC3)ccc1-n1cnnn1	-4%
Cn1c(SCC(=O)NCc2ccccc2)nnc1-c1ccc(NC(=O)CCc2ccccc2)cc1	-7%
Other entries:
SMILES	HPGD block
COc1cccc2cc(C(=O)C3=C(O)C(=O)N(CCN4CCOCC4)C3c3cccs3)oc12 (stereo not given)	-11%
Cc1ccc(C(C)(C)C)c(OCCOCCN2CCCC2)c1	1%
O=c1cc(-c2ccccc2O)oc2c(O)c(O)ccc12	10µM*
Cc1ccc(-c2csc3ncnc(NS(=O)(=O)c4ccc(Cl)cc4)c23)cc1	13%
Cc1ccc(S(=O)(=O)NCCC(=O)Nc2ccc(C)cc2C(=O)c2ccccc2)cc1	-2%
CC(C)c1ccc(C(=O)N2CCN(CCO)CC2)cc1	-10%
CC1CN(C(=O)c2cc(S(=O)(=O)N3CCCC3)c(Cl)cc2Cl)CC(C)O1 (stereo not given)	-6%
CN(CP(=O)(O)C(O)c1ccccc1)S(C)(=O)=O (stereo not given)	-13%
O=C(CSc1nc(N2CCCCC2)nc(N2CCCCC2)n1)N1CCN(c2ccccc2)CC1	-11%
O=c1c2ccccc2n2nnnc2n1-c1ccccc1	-2%
Oc1ccc(Cl)c2cccnc12	-4%
O=C(NCc1ccc(F)cc1)N[C@@H](Cc1ccccc1)C(=O)O	-3%
Cc1ccc(N(CCCCN2C(=O)c3ccccc3C2=O)C(=O)c2cccs2)cc1	-2%
CCOC(=O)N1CCN(C(=O)c2cn(CC(C)C)c(=O)c3c2c2ccccc2n3C)CC1	?
COc1ccc(NC(=S)NNC(=O)c2cccs2)cc1	-9%
O=C(Nc1nn[nH]n1)c1nc(-c2ccccc2)cc(=O)[nH]1	-6%
CS(=O)(=O)N(CC(=O)N/N=C/c1cc2c(cc1Br)OCO2)c1ccccc1Br	?
O=C(CN1CCC(C(=O)c2ccc(Cl)cc2)CC1)Nc1ccc2c(c1)OCCO2	-10%
CCCCc1cc(=O)oc2c(CN(C)C)c(O)ccc12	?
C/C=C/c1ccc(Oc2nnnn2-c2ccc(C(=O)O)cc2)c(OC)c1	-21%
C=CCSc1nc(-c2ccccc2)c(C#N)c(=O)[nH]1	?
Cc1ccc(-n2nnnc2/C=C\Nc2cc(C)on2)cc1	-13%
CCc1c(C(=O)N/N=C/c2ccsc2)csc1C	-16%
Cc1cccn2c(=O)c(/C=C(\C#N)C(=O)NCc3ccco3)c(N3CCC(C(N)=O)CC3)nc12	-30%
Cc1ccc(NC(=O)CSc2nnnn2-c2ccc3c(c2)OCO3)cc1C	-11%
Remaining list, next part.
SMILES	HPGD block
Fc1ccccc1NC(=S)NCCc1ccccc1	-16%
CCOCCCNS(=O)(=O)c1ccc(-n2cnnn2)c(OC)c1	-1%
Cc1ccc2[nH]c(-c3cccc(N)c3)cc2c1	?
CCn1c(SCC(=O)N2CCC(C(N)=O)(N3CCCCC3)CC2)nnc1-c1ccccc1	2%
O=C1CC(Nc2ccc(N3CCOCC3)cc2)C(=O)N1C1CCCCC1 (stereo not given)	-9%
O=C(NCCc1ccccc1)C1CCC(CNc2c(N3CCCCC3)c(=O)c2=O)CC1 (stereo not given)	6.3µM*
Cc1ccccc1NC(=O)c1ccccc1NS(=O)(=O)c1cccc2cccnc12	-23%
COc1ccc(-c2cnn3c4c(c(C)nc23)CCN4C(C)C)cc1OC	-6%
Cc1ccccc1N(C(=O)CCC(=O)Nc1ccccn1)C(C(=O)NC(C)C)c1ccc(O)cc1 (stereo not given)	-9%
c1ccc(-n2nnnc2SCc2cccc3nsnc23)cc1	?
C/C(=N\Nc1ccc(C(F)(F)F)cc1[N+](=O)[O-])C(C)C	-14%
CCCCC(=O)Nc1ccc(NC(=O)c2cc(OC)c(OC)c(OC)c2)cn1	-12%
CCOc1ccc(-n2c(=O)[nH]cc(C(=O)N3CCCc4ccccc43)c2=O)cc1	-9%
COc1ccccc1-n1c(=O)[nH]c2c(C(N)=O)nc(C3CCCCC3)nc21	-13%
O=C(/C=C/c1ccco1)Nc1ccc(-c2nc3ccccc3[nH]2)cc1	-24%
CN1CCN(c2nc(NCCOC34CC5CC(CC(C5)C3)C4)nc(OCC(F)(F)F)n2)CC1	-17%
COc1ccc(Cn2c(C3CC3)nc3ccc(NC(=O)C4CC4)cc3c2=O)cc1	?
NS(=O)(=O)c1cccc(NC(=O)COC(=O)C2(c3cccc(F)c3)CCCC2)c1	-20%
COc1ccc2c3c([nH]c2c1)[C@@H]1C[C@@H]2[C@@H](C[C@H](O)[C@H](OC)[C@H]2C(=O)O)CN1CC3	-11%
COc1cc(OC)c(C2C(C(=O)O)c3ccccc3C(=O)N2C)cc1OC (stereo not given)	-1%
CCCCSc1nc2c(=O)[nH][nH]c(=O)c2n1Cc1ccccc1	-11%
CCOC(=O)N1CCN(S(=O)(=O)c2ccc(C)cc2)C1c1ccc(OC)cc1 (stereo not given)	-10%
COc1ccc(N2CCC(CNC(=O)Nc3ccc(C)c(C)c3)C2)cc1 (stereo not given)	-2%
Cc1cc(C(=O)COc2cccnc2[N+](=O)[O-])c(C)n1-c1ccccc1	-5%
Cc1ccc(-n2cnc3c(sc4nccc(N(C)C)c43)c2=O)cc1	-8%

Among those listed so far, 6 have a COOH group:
SMILES	HPGD block
O=C(O)CSCC(=O)Nc1cccc2ccccc12	-14%
Cc1oc(C(=O)O)cc1COc1ccc2c(C)cc(=O)oc2c1	?
O=C(NCc1ccc(F)cc1)N[C@@H](Cc1ccccc1)C(=O)O	-3%
C/C=C/c1ccc(Oc2nnnn2-c2ccc(C(=O)O)cc2)c(OC)c1	-21%
COc1ccc2c3c([nH]c2c1)[C@@H]1C[C@@H]2[C@@H](C[C@H](O)[C@H](OC)[C@H]2C(=O)O)CN1CC3	-11%
COc1cc(OC)c(C2C(C(=O)O)c3ccccc3C(=O)N2C)cc1OC (stereo not given)	-1%

Reformatted: results already given.
SMILES | HPGD block
Cc1ccc2[nH]c(-c3cccc(N)c3)cc2c1 | ?
CCn1c(SCC(=O)N2CCC(C(N)=O)(N3CCCCC3)CC2)nnc1-c1ccccc1 | 2%

(more compounds)
SMILES	HPGD block
CCn1c(=O)c2[nH]c(-c3ccccc3)nc2n(CC)c1=O	?
O=C(CCCN1C(=O)c2ccccc2C1=O)NC1=NCCS1	-12%
CCCCC(=O)Nc1cccc(NC(=O)c2ccc3c(c2)OCO3)c1	3%
COC(=O)c1ccc(NC(=O)C(=O)N2CCN(C(=S)Nc3cccc(C)c3C)CC2)cc1	-3%
Clc1ccc(-c2nnc(C34CC5CC(CC(C5)C3)C4)o2)cn1	-9%
CCOc1cc(/C=C2\C(=O)N(CCc3ccc(OC)c(OC)c3)C(C)=C2C(=O)OC)ccc1O	?
O=C(Cc1cccs1)NC1(C(=O)NC2CCCC2)CCCCC1	1%
CC(=O)c1sc(NC(=O)c2cccc3ccccc23)nc1C	-2%
Cc1ccc(SCc2cc(=O)[nH]c(/N=C(\N)Nc3ccccc3Sc3ccccc3)n2)cc1	-9%
C(=N\n1cnnc1)/c1ccc2c(c1)OCO2	-26%
Cc1ncc(CO)c(/C=N/NC(=O)c2ccc(Br)cc2)c1O	?
Cc1c(C(=O)NCc2cccnc2)sc2ncn(CC(=O)N3CCCCC3C)c(=O)c12 (stereo not given)	-1%
Cc1ccc(CN2CCN(CC(=O)N3CCc4ccccc4C3)C2=O)cc1	-16%
Cc1ccc(C(=O)N2CCOCC2)cc1S(=O)(=O)Nc1cccc(C)c1C	-13%
O=C(NC1CCN(Cc2ccccc2)CC1)c1cc(-c2ccccn2)nc2ccccc12	0%
O=C(Nc1ccccn1)c1ccc(NC(=O)c2ccco2)cc1	-15%
CCCC(C)C(=O)Nc1nc(C)c(-c2csc(Nc3ccc(Cl)cc3)n2)s1 (stereo not given)	?
COc1ccc(N(CC(=O)NN=C2CCCC2)S(=O)(=O)c2ccccc2)cc1Cl	-9%
CCc1ccc2[nH]c3nc(SCC(=O)NNC(=O)c4ccc(C(C)(C)C)cc4)nnc3c2c1	-16%
O=C(Nc1ccc(-c2nc3cccnc3s2)cc1)c1ccco1	?
CCSc1nnc(NC(=O)C2Cc3ccccc3CN2C(=O)c2ccco2)s1 (stereo not given)	-10%
Cc1ccn2cc(CNC(=O)c3ccc(Br)o3)nc2c1	16µM*
O=C1CSc2nc3ccccc3n21	?
CCn1c(SCC(=O)Nc2ncc(C(F)(F)F)cc2Cl)nnc1-c1cccc(C)c1	-1%
COc1ccnc(Oc2ccc3ccccc3c2)c1C#N	-17%
Following part:
SMILES	HPGD block
CC(SC1CCCC1)C(=O)Nc1ccnn1C(C)C (stereo not given)	2%
CC1(C)Cc2c(C#N)c(N)sc(=S)c2CO1	-11%
Cc1ccc(C)c(-n2nnnc2SCC(=O)c2ccc3c(c2)NC(=O)CO3)c1	-27%
CC(=O)SC[C@@H](Cc1ccccc1)C(=O)NCC(=O)OCc1ccccc1	-2%
Cc1ccccc1CNC(=O)Nc1cccs1	-9%
COc1ccc(N(C(=O)c2ccco2)S(=O)(=O)c2ccc(F)cc2)cc1	28µM*
Cc1ccc(/C(COc2ccccc2O)=N\O)cc1	-14%
CC/C(=N\NC(=S)Nc1cc(C)ccc1C)c1ccc(OC(F)F)cc1	-9%
CN(C(=S)NC1=CCS(=O)(=O)C1)C1CCCCC1	-11%
O=C(/C=C/c1ccc(Br)cc1)c1ccc(NC2=NCCCS2)cc1	8.9µM*
CCOc1ccc(Cl)cc1S(=O)(=O)N1CCCC1	-8%
COC(=O)NNC(=O)C1CCC(C)CC1 (stereo not given)	-2%
COc1cc(OC)cc(C(=O)NNC(=S)Nc2ccccc2OC)c1	-10%
Cc1ccc(Cl)cc1-n1c(=O)cc(N2CC(C)OC(C)C2)[nH]c1=O (stereo not given)	-3%
Cc1cc(C)cc(N(CC(=O)NC2CC3CCC2C3)S(C)(=O)=O)c1 (stereo not given)	-5%
C/C(=N\NC(=O)CSCc1ccc([N+](=O)[O-])cc1)c1cccc(Br)c1	-15%
COCc1nnc(NC(=O)c2cc(Cl)ccc2OC)s1	?
CC(C)c1nnc(NC(=O)CCC(=O)NC2CCCCCCC2)s1	-6%
CC(C)N(C(=O)COC(=O)c1ccc(O)cc1)C(C)C	4%
COc1ccc(OC)c(S(=O)(=O)Nc2cc(Cl)cc(Cl)c2)c1	-10%
C=C(C)CN(CC)c1nc(N)c(C#N)c(CC#N)c1C#N	-18%
Cc1cccc(S(=O)(=O)N2CN(Cc3ccco3)c3nc4ccccc4nc32)c1	-25%
COc1ccc(CN(C(=O)c2ccco2)C2CC(C)N(C)CC2C)cc1 (stereo not given)	-2%
O=C(CCSc1nnc(-c2ccco2)o1)Nc1ccccc1	-9%
CCC(Sc1nc(N)cc(=O)[nH]1)C(=O)NC(C(=O)OC)c1ccccc1 (stereo not given)	-5%

Two entries from above, field by field:
> Cc1ccc(Cl)cc1-n1c(=O)cc(N2CC(C)OC(C)C2)[nH]c1=O (stereo not given)
- HPGD block: -3%

> Cc1cc(C)cc(N(CC(=O)NC2CC3CCC2C3)S(C)(=O)=O)c1 (stereo not given)
- HPGD block: -5%

Further structures
SMILES	HPGD block
CCN(Cc1ccccc1)C(c1cc2ccc(C)cc2[nH]c1=O)c1nnnn1CCOC (stereo not given)	-4%
Cc1ccc(OCc2nc(C#N)c(N3CCN(Cc4ccccc4)CC3)o2)cc1	-5%
CCc1cccc(CC)c1NC(=O)C1CC(=O)N(c2ccc3c(c2)OCCO3)C1 (stereo not given)	-2%
O=C(CN1CCN(Cc2cccc(Cl)c2)C1=O)NCC1CCCO1 (stereo not given)	-6%
COC(=O)c1cc(NCc2ccc3c(c2)OCO3)ccc1N1CCOCC1	-6%
CCC(Oc1ccccc1)C(=O)N1CCN(c2ccccn2)CC1 (stereo not given)	-17%
Cc1oc2c(CN3CCCC3)c(O)ccc2c(=O)c1-c1ccc(Cl)cc1	?
NC(=O)c1c(NC(=O)c2cc3ccccc3o2)sc2c1CCC2	?

This is a subset, so the mix of outcomes need not match the whole.
